Compound activity as filed in PubChem.
Six1-Eya2 inh: inhibitors of human Six1/Eya2 interaction; activity change, % (test concentration not listed); Q15475+O00167; AlphaScreen GST-Six1/His-Eya2 binding, biochemical; stronger effect = lower value; control for the full effect not named in the record; 360,000 tested, 0.56% active; in the data active = activity change below about -65%; inconclusive = about -30% to -65%; inactive = above about -30%; further: on the % scale 0 is the no-effect control and ±100 the full control effect; compound concentration not given in the record
Target sequence (O00167 whole entry, looked up): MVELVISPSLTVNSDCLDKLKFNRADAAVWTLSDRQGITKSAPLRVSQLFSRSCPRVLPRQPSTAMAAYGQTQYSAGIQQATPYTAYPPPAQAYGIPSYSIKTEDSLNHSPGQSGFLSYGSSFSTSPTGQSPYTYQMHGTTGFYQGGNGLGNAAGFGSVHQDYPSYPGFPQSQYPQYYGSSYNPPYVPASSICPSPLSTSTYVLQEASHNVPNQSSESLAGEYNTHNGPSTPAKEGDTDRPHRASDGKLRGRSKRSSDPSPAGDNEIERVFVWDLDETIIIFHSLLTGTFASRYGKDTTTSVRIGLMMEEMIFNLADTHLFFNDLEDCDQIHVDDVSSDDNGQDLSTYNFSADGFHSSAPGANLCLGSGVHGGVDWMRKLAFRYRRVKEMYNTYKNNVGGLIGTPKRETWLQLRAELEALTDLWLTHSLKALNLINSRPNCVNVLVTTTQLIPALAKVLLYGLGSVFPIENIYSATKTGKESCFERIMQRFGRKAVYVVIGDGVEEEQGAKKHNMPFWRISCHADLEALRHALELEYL
Target sequence (Q15475 whole entry, looked up): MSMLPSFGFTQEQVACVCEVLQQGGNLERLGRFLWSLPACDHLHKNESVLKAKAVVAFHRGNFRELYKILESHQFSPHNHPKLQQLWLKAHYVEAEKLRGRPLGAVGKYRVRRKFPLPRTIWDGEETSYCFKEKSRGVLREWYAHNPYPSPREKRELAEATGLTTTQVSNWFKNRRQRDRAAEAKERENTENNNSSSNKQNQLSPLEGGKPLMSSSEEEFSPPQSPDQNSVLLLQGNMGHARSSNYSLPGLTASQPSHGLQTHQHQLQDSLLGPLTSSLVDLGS
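GST-Six1 + His-Eya2 (5X stock: 250/500 nM); Tris pH 8.0, 300 mM NaCl, 0.05% BSA, 0.02% Tween 20; GSH donor/Ni acceptor beads; 1 h 37 °C dark; AlphaScreen readout.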
D2 potentiator: positive allosteric modulators of human D2 dopamine receptor. 360,000 tested, 0.23% active. DiscoveRx D2 beta-arrestin cells, luminescence, 90 min; 100% = 57 uM dopamine signal. potentiation, % (concentration not given with the values). P14416. AID 624464; active = potentiation of 50% or more; inconclusive = 30% to 50%; inactive = 30% or less;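 further: compound concentration not given in the record; tested on top of an EC20 dose of dopamine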
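D2 cells co-treated with compound plus 50 nM dopamine (EC20) for 90 min at 37 deg C to detect potentiation. Beta-arrestin recruitment was read as enzyme-fragment luminescence after 1 h at ambient temperature. Full response was set by 57 uM dopamine.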
gsp ag: agonists of gsp mutant (McCune-Albright syndrome) | Potency, µM (titrated, usually from 76.9 µM), for the others: top-dose activation (cAMP increase), most hits filed as activators | 340,000 tested, 0.13% active | gsp mutant cells, cAMP HTRF, 30 min; control for the full effect not named in the record | AID 624287; active = well fitted activation curve with a large enough effect; inconclusive = small, poorly fitted or top-dose-only effect, or another doubt; inactive = no such curve, though single readings can be large or run the other way; cell line not stated here;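 further: phosphodiesterase inhibitor Ro 20-1724 added with compounds to block cAMP breakdown; potency means the concentration at half of the fitted maximal effect; nearly all actives have a fitted effect of over 60% in size; about a fifth of the inactives were tested at one dose only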
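Cells in DMEM/10% FBS with G418 were pretreated with compounds in DMSO plus […] (300 uM stock) for 30 min at 37C. cAMP was measured by HTRF (cAMP-d2 plus anti-cAMP antibody-K) after 30 min at room temperature.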
CtBP-E1A inh: CtBP/E1A binding inhibition; AlphaScreen GST-E1A/His-CtBP binding, 1536-well; stronger effect = lower value; control for the full effect not named in the record; 340,000 tested, 0.49% active; AID 651724; activity change, % (test concentration not listed); in the data active means activity change below about -65%; inconclusive means about -30% to -65%; inactive means above about -30%; further: on the % scale 0 is the no-effect control and ±100 the full control effect; compound concentration not given in the record
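Steps: dispense buffer (Tris pH 8.0, NaCl 300 mM, TCEP 1 mM, BSA, Tween 20); add 5X protein mix (GST-E1A, His-CtBP, 125 nM each); pin 23 nL compound; 2 h at 37 °C, dark; add 5X beads (50 ug/mL); 1 h; read.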
gsp antag: antagonizes gsp, the McCune-Albright syndrome mutation. AID 624288. 340,000 tested, 0.4% active. Potency, µM (titrated, usually from 76.9 µM), without a hit: top-dose activity change, negative = inhibition, usual class: inhibitors. gsp-mutant cells, cAMP HTRF, 30 min; control for the full effect not named in the record; active = falling curve of any shape with a large fitted effect; inconclusive = falling curve, mostly with a smaller effect; inactive = flat or rising curve; cell line not stated here;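 further: intracellular cAMP measured with PDE inhibitor Ro 20-1724 present during compound exposure; potency means the concentration at half of the fitted maximal effect; on the % scale 0 is the no-effect control and ±100 the full control effect; nearly all actives have a fitted effect of over 65% in size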
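G418-selected cells were plated in DMEM/10% FBS for 16-24 h at 37C, then treated with compounds plus the PDE inhibitor […] (300 uM solution added) for 30 min at 37C. Intracellular cAMP was measured by HTRF after 30 min lysis at room temperature.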
D2 agonist: agonists of human D2 dopamine receptor (beta-arrestin); P14416; DiscoveRx PathHunter D2 beta-arrestin, luminescence, 90 min; 100% = 57 uM dopamine signal; activation, % (concentration not given with the values); 360,000 tested, 0.084% active; AID 624465; in the data active = activation above about 40%; inconclusive = about 15% to 40%; inactive = below about 15%; further: compound concentration not given in the record; the text of the record calls up to 30% inactive
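DiscoveRx PathHunter D2 beta-arrestin cells (2,100/well) attached overnight, then compound-stimulated 90 min at 37 C in HBSS/10 mM HEPES/0.1% Tween-20 buffer; beta-galactosidase complementation read by luminescence after 1 h at ambient temperature. Dopamine 57 uM final (EC100) as control.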
Numbers without * were called inactive; ? = inconclusive; / = not tested or not shown; [ ] = dose if it differs, or a comment.

SMILES	Six1-Eya2 inh	D2 potentiator	gsp ag	CtBP-E1A inh	gsp antag	D2 agonist
CCOc1ccc(OCCCC(=O)Nc2cc(S(=O)(=O)N3CCOCC3)ccc2N2CCOCC2)cc1	-1	0	-27%	-9	-21%	-4.0
CCC1(c2ccc(F)cc2)NC(=O)N(CC(=O)N2c3ccccc3NC(=O)CC2C)C1=O (stereo not given)	0	0	0%	0	7%	-2.1
C=CCOc1c(Br)cc(CNn2c(C)n[nH]c2=S)cc1OCC	-4	-15	13%[15.4 µM]	3	?	4.8
CCOC(=O)c1[nH]c(C)c(C(=O)NC2CCN(C(=O)OCC)CC2)c1C	-2	15	6%	1	8%	-1.4
Clc1ccc(SCCOCCN2CCOCC2)cc1	3	-38	4%	/	7%	-0.9
Cn1c(=O)c2c(nc(CN3CCN(Cc4ccccc4)CC3)n2Cc2ccc(F)cc2)n(C)c1=O	-9	-13	-4%	1	-6%	-7.2
Cc1ccc(CSc2nnc(CCNC(=O)OC(C)(C)C)o2)cc1	-2	-21	6%	/	4%	2.1
N#Cc1c(SCC(=O)Nc2nccs2)sc2c(O)cc(=O)[nH]c12	?	-5	-2%	-70*	9%	3.7
O=C(NCCN1CCOCC1)C1CCN(c2nc3ccccc3o2)CC1	2	2	-5%	1	7%	1.6
CCCCCCn1c(N2CCN(c3ccccc3)CC2)nc2c1c(=O)[nH]c(=O)n2C	-3	6	11%	-2	7%	-4.7
O=C(Cn1ncc2c(=O)oc3ccccc3c21)NCCCN1CCCC1=O	0	-2	-1%	3	-4%	-0.3
CNC(=O)c1[nH]cnc1C(=O)N[C@@H](C)C(=O)OCc1ccccc1	-6	15	-32%[inhibitor]	-10	2%	6.8
CCN(C(=O)COC(=O)c1sccc1C)c1c(N)n(Cc2ccccc2)c(=O)[nH]c1=O	8	-15	?	-1	9%	-2.2
CC1(C)CC(=O)C2=C(C1)OC1=C(C2)C(=O)CC(C)(C)C1	1	-1	-11%	10	-1%	-3.1
COc1ccccc1NC(=O)c1ccc(NC(=O)COC(=O)CC(NC(=O)c2ccccc2Cl)c2ccccc2)cc1 (stereo not given)	-5	1	22%	-3	-8%	5.0
CC(=O)Oc1ccc(Cn2c(C)c(C(=O)NCc3cccc(C(F)(F)F)c3)sc2=O)cc1	0	-6	/	-4	/	-4.7
Cc1cc(=O)[nH]c(N/N=C/c2ccc(Cl)c([N+](=O)[O-])c2)n1	-3	2	-1%[15.4 µM]	-1	-11%	0.4
COc1ccc(/C=N/Nc2nc(=O)[nH]nc2C)cc1[N+](=O)[O-]	-16	-1	31%[15.4 µM]	-17	2%	-1.6
CCN(CC)CCNC(=O)C1c2cc(OC)c(OC)cc2C(=O)N2CCc3ccccc3C12 (stereo not given)	2	-23	3%	5	16%	-2.5
COCCNC(=O)NC(=O)COC(=O)C1(c2ccc(Cl)cc2)CC1	-1	-4	?	9	3%	-0.1
COC(=O)c1cc(OC)c(OC)cc1NC(=S)N1CCN(C)CC1	1	-23	-28%	4	-1%	-1.2
CCC(NC(=O)Nn1cnnc1)(C(F)(F)F)C(F)(F)F	6	-2	12%	1	13%	0.4
Cc1cccc(C(=O)OCC(=O)Nc2sccc2C(N)=O)c1C	-2	-1	0%	3	/	-2.0
CCOc1cc(/C=N/NC(=O)CSc2nncn2C)ccc1OCC(N)=O	0	-2	-18%[15.4 µM]	-4	2%	-2.0
COc1ccc(-c2cc(=O)oc3cc(OC(C)C(=O)Nc4ccc(CN5CCOCC5)cc4)ccc23)cc1 (stereo not given)	-18	-27	?	-30	-16%	-6.4

(continued)
SMILES	Six1-Eya2 inh	D2 potentiator	gsp ag	CtBP-E1A inh	gsp antag	D2 agonist
CSc1ncc(CN2CCc3c([nH]c4ccccc34)C2C(C)(C)C)cn1 (stereo not given)	0	-16	7%[15.4 µM]	0	-8%	-2.3
CC(C)CN(C(=O)COC(=O)/C=C/c1cccs1)c1c(N)n(Cc2ccccc2)c(=O)[nH]c1=O	0	-13	-18%	6	-5%	-3.9
Cc1cc(C(=O)N2CCN(C/C=C/c3ccccc3)CC2)cs1	8	-40	30%	0	-9%	0.9
Cc1ccc(NC(=O)CSCC(=O)NCc2ccco2)cc1	3	-1	17%[15.4 µM]	1	8%	1.9
Cc1cc(C)c(C(=O)NC2CCCc3c2cnn3-c2cccc(C)c2C)o1 (stereo not given)	-11	-15	27%	-20	-17%	-5.5
CCN(CC)C(=O)C1=C(C)N(Cc2ccc(F)cc2)C(=O)C(CC(=O)NC2CCCCC2)C1 (stereo not given)	-4	/	-1%	2	/	-0.4
O=C(Nc1ccc2c(c1)OCCO2)c1ccc2nccnc2c1	-4	-7	11%	1	-5%	-2.3
N#Cc1c2c(c(-c3ccccc3Cl)[nH]c1=S)CCCC2	-3	-1	35%[15.4 µM]	-1	-9%	-1.8
COc1ccc(C(=O)N2CCN(C(=O)Cc3ccccc3)CC2)cc1	7	1	0%[15.4 µM]	3	5%	-5.6
O=C(CC1CCCC1)N1CCN(S(=O)(=O)c2cccc(F)c2)CC1	-2	0	-4%[15.4 µM]	6	1%	1.6
COc1ccc(/C=C2\CCC(C3CCCC3)C2=O)cc1Cn1nc(C)cc1C (stereo not given)	12	-11	-4%[15.4 µM]	-4	5%	-2.0
CCOC(=O)c1ccc(-n2c(C)nc3ccc(Br)cc3c2=O)cc1	1	-7	-15%[15.4 µM]	5	-21%	-0.8
O=C(Cc1ccccc1[N+](=O)[O-])Nc1ccccc1C(=O)N1CCCC1	6	-5	4%	-2	6%	-2.3
C/C(=N/NC(=O)c1cnccn1)c1cccs1	-1	-12	1%	-3	6%	-2.5
O=C(Nc1cccc(C(=O)O)c1)/C(=C\c1ccccc1)NC(=O)c1cccc2ccccc12	-2	-11	3%	/	-3%	3.9
CCOc1cccc(C(=O)NC(=S)Nc2ccc(N3CCN(CC)CC3)cc2)c1	-14	-6	-6%[15.4 µM]	-1	14%	-3.1
CCOc1cc(NC(=O)c2ccccc2C)c(OCC)cc1NC(=O)C1=Cc2ccccc2OC1	1	-2	-20%	8	-3%	-1.9
COCCSc1ccccc1C(=O)N1CCN(Cc2ccccc2)CC1	0	-9	-78%[inhibitor]	8	10%	-1.8
COc1ccc(CCN(Cc2ccccn2)C(=S)Nc2ccc(C)cc2)cc1OC	-10	-3	0%[15.4 µM]	2	-9%	-2.5
COc1ccc(NC(=O)CC2SC(=NCC3CCCO3)NC2=O)c([N+](=O)[O-])c1 (stereo not given)	-1	-6	-32%[inhibitor]	/	0%	7.2
CC1(C)CC(NC(=O)C23CCC(C)(C(=O)C2)C3(C)C)CC(C)(C)N1 (stereo not given)	9	-9	-26%	6	19%	-4.0
COc1cccc(-c2cc(C(=O)O)no2)c1	3	-3	-42%	8	3%	-1.7
CC(c1n[nH]c(=S)n1Cc1ccccc1)N(C)C (stereo not given)	1	-14	5%[15.4 µM]	10	8%	-4.5
CCOC(=O)C1CCCN(C(=O)c2ccc(CNS(=O)(=O)c3ccc(C)cc3)cc2)C1 (stereo not given)	15	-6	?	5	-6%	6.3
Cc1nc2sccn2c(=O)c1S(=O)(=O)NCc1ccccc1Cl	8	-3	?	10	2%	-7.8

Pulled by compound from the list above (2):
SMILES	Six1-Eya2 inh	D2 potentiator	gsp ag	CtBP-E1A inh	gsp antag	D2 agonist
O=C(Nc1cccc(C(=O)O)c1)/C(=C\c1ccccc1)NC(=O)c1cccc2ccccc12	-2	-11	3%	/	-3%	3.9
N#Cc1c2c(c(-c3ccccc3Cl)[nH]c1=S)CCCC2	-3	-1	35%[15.4 µM]	-1	-9%	-1.8

Entries listed above that bear a hit mark in CtBP-E1A inh.
SMILES	Six1-Eya2 inh	D2 potentiator	gsp ag	CtBP-E1A inh	gsp antag	D2 agonist
N#Cc1c(SCC(=O)Nc2nccs2)sc2c(O)cc(=O)[nH]c12	?	-5	-2%	-70*	9%	3.7

The listing continues:
SMILES	Six1-Eya2 inh	D2 potentiator	gsp ag	CtBP-E1A inh	gsp antag	D2 agonist
COc1ccc(-n2c(SC)nnc2-c2c[nH]c3ccccc23)cc1	3	2	-11%	-12	4%	-6.9
COc1cc(NC(=S)NNC(=O)C(C)(C)O)cc(OC)c1	7	-5	-15%	/	5%	-6.2
O=C(COC(=O)/C=C/c1ccc(Cl)cc1)Nc1ccccc1-c1ccccc1	11	5	-11%	12	7%	-0.1
CC(C(=O)NC1CCCC1)N(C(=O)CS(=O)CC(=O)Nc1ccc(F)cc1)c1ccc2c(c1)OCCO2 (stereo not given)	-2	-5	-34%	8	-15%	-2.1
N#Cc1c(NC(=O)Cn2cnc3ccccc3c2=O)oc(-c2ccccc2)c1-c1ccccc1	-11	-7	-12%	-3	-4%	-1.8
CCOc1cc(N2CCOCC2)c(OCC)cc1NC(=O)CN1CCN(Cc2ccc3c(c2)OCO3)CC1	-1	-2	-7%	13	-1%	4.0
CC(c1ccccc1)N(C)CC(=O)NC(=O)NCCC1=CCCCC1 (stereo not given)	6	-6	0%	/	0%	-1.6
CCOC(=O)C1(C)CCCN(C(=O)c2ccc(F)c(Cl)c2)C1 (stereo not given)	2	-3	/	-6	/	4.8
CC1(C)SC(=S)N(c2ccccc2)C1/[N+]([O-])=C/c1cccc([N+](=O)[O-])c1 (stereo not given)	-1	-1	-2%[15.4 µM]	-5	0%	-2.2
Cc1cc(OCCN2CCN(S(=O)(=O)c3ccccc3F)CC2)ccc1C(C)C	-13	-21	5%	2	1%	-2.5
COc1ccc(C(=O)Nn2c(SCC(=O)c3ccc(Cl)cc3)nc3ccccc3c2=O)cc1	-9	-3	-29%	?	10%	-3.0
CC1CCCCN1CC(=O)Nc1ccccc1Sc1ccccc1 (stereo not given)	3	-16	20%	14	-3%	-4.1
Cc1ccc(NC(=O)C[n+]2ccn(C3=C([O-])c4ccccc4C3=O)c2)cc1	-1	-16	11%[15.4 µM]	-2	1%	-5.8
COc1ccc(/C=C(/NC(=O)c2ccccc2)C(=O)N2CCCCC2)cc1	5	-9	-4%	-14	-10%	-3.8
COc1nccc(C(F)(F)F)c1C(=O)NC(=O)Nc1c(C)cccc1C	-7	-5	7%[15.4 µM]	-13	7%	-0.8
CCCn1c(N)c(C(=O)CSc2nnc(C3CC3)n2Cc2ccccc2)c(=O)[nH]c1=O	-1	-3	-29%	-2	-1%	-3.0
Cc1ccc(C(=O)Nc2nc3nc(-c4ccccc4)cc(=O)n3[nH]2)cc1	-14	-5	0%	-8	-1%	-1.0
Cc1ccc(S(=O)(=O)N[C@@H](CC(C)C)C(=O)N2CCC(C(=O)N[C@@H](Cc3ccccc3)C(=O)O)CC2)cc1	-6	-27	/	-7	8%	-4.3
COc1cc(C2SCC(=O)N2c2nnc(C34CC5CC(CC(C5)C3)C4)s2)cc(OC)c1OC (stereo not given)	12	-5	-8%	47	-5%	-0.4

The order is random (roughly 1.4% active in at least one column).
